Assay outcomes: PubChem BioAssay, several laboratories
RanGTP-Impb inh = inhibitors of RanGTP-importin-beta interaction, primary screen, biochemical, FRET, CFP-Ran, YFP-importin-beta, homogeneous; cell-free CFP-Ran/YFP-importin-beta FRET ratio; inhibition, % (concentration not given with the values); 300,000 tested, 1.1% active;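 active = most replicates above 15%; inconclusive = exactly half above 15%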;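 note: 0% = DMSO wells and 100% = Ran loaded with GDP instead of GTP; wells of about 40 µL received 100 nL stock; the first replicate is given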
UCH37 DUB inh = blocks the human deubiquitinase UCH37 | 330,000 tested, 0.33% active | purified proteasome/UCH37, Ub-AMC cleavage fluorescence | AID 588478 | inhibition, % (no concentration beside the values);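 active = mean of two replicates above 20%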;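 note: 0% = compound-free wells with enzyme and 100% = wells lacking proteasome; stock transfer was 100 nL into about 20 µL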
Target sequence (Q9Y5K5 whole entry, looked up): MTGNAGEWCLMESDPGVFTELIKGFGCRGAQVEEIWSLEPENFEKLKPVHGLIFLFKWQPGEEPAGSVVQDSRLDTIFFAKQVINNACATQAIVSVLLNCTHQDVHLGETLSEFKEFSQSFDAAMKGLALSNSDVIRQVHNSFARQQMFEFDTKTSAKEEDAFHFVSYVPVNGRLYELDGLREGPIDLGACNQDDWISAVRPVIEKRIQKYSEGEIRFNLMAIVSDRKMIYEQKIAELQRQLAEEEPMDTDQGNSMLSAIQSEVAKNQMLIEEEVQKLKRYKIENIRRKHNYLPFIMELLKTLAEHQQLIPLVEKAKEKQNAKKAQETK
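system = Proteasome-associated human UCH37 deubiquitinase | amount = 0.15 nM proteasome as dispensed | medium = pH 7.4 Tris-HCl (50 mM) with ovalbumin, ATP-MgCl2, DTT | incubation = 30 min preincubation with enzyme, 25 min cleavage at room temperature | detection = AMC fluorescence 355/460 nm | read-out basis = percent inhibition | controls = no-proteasome and no-compound wells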
HNF4A DNA FP = change in binding of human HNF4 alpha to DNA. P41235. HNF4a-FITC DNA binding, fluorescence polarization, 1 h. activity change, % at 10 µM. 360,000 tested, 0.3% active. AID 1224865; in the data active = activity change above about 30%, passing the limit was not always enough;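 note: controls were the assay level and a saturating level of protein; the project sought stronger binding though the title names inhibitors; some compounds called inactive have numbers as strong as hits; positive values seem to mean higher polarization but the record does not say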
Vif TR-FRET = HIV-1 Vif–A3G interaction blockers – biochemical, TR-FRET, GST-Vif 1-94, biotin-A3G peptide, dose response retest, primary screen (AID 1117319); TR-FRET GST-Vif / biotin-A3G peptide binding; higher % means a stronger effect; test concentration not given here; strong numbers were not always called active; inhibition, %, or IC50 in µM where a hit was titrated; 260,000 tested, 0.57% active;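 active = above the screen mean plus three standard deviations and confirmed in dose response; inconclusive = results disagree or hit not tested in dose response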;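 note: Vif residues 1-94 fused to GST binding biotinylated APOBEC3G peptide 110-148; 0% = full assay without inhibitor and 100% = GST in place of GST-Vif; retest series ran down from 100 µM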
FGF22 binding = shifts melting point of recombinant human FGF22; recombinant FGF22 thermal shift, SYPRO orange fluorescence; percent of sucrose octasulfate shift, DMSO zero; AID 651658; 340,000 tested, 1.5% active; calls only at 9.99 µM;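 active = melting point raised past a set limit in the mean and every replicate; inconclusive = no clear call; three in four hits are not shown here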
Target sequence (Q9HCT0 whole entry, looked up): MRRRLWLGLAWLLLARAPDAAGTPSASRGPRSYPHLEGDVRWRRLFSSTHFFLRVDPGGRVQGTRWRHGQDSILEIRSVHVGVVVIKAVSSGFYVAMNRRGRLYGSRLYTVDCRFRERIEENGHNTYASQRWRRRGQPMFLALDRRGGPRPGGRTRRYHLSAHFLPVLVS
Ecoli growth = inhibitors of Escherichia coli growth; OD600, 23 h; hits give low values; OD600 absorbance (no concentration beside the values); 330,000 tested, 0.21% active; AID 1053175;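 active = OD600 absorbance below the run mean of sample wells minus 3.6 SD, in any replicate, cut at about 0.56 in these data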;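 note: stock transfer was 300 nL into about 60 µL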
MLL AF4-AF9 inh = MLL-AF4/AF9 protein interaction inhibition; 350,000 tested, 0.47% active; inhibition, % at 10 µM; AID 651704; AlphaScreen, biotin-AF4 peptide binding to FLAG-AF9; P42568;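 active = every replicate reaching a set inhibition limit, whatever the replicate mean, cut at about 25% in these data; inconclusive = mean inhibition reaches that limit but some replicates miss it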;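 note: 0% = plate neutral control median and 100% = total signal loss; the record names both 10 and 1 µM as test concentration; the first replicate is given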
Target sequence (P42568 whole entry, looked up): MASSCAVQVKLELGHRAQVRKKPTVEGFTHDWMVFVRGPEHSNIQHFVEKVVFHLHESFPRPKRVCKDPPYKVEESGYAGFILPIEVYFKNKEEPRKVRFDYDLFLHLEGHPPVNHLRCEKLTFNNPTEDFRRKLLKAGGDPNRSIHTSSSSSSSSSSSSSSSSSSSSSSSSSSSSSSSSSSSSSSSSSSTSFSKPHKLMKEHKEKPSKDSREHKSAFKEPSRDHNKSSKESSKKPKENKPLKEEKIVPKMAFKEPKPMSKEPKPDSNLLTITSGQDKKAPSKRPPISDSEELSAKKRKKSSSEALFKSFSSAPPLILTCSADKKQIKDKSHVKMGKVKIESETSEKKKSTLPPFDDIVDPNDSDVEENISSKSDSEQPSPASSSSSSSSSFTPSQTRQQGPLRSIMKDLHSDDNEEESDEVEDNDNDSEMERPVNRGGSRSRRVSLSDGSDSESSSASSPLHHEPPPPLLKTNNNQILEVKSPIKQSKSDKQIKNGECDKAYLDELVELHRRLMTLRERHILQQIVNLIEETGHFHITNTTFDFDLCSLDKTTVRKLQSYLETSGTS
The depositor's hits bear a star; i = inactive; ? = inconclusive; . = not tested or not shown. The list is partial; rates above refer to the full screens.

Sample of the layout:
SMILES	RanGTP-Impb inh	UCH37 DUB inh	HNF4A DNA FP	Vif TR-FRET	FGF22 binding	Ecoli growth	MLL AF4-AF9 inh
C[N+](C)(C)C[C@H](O)CC(=O)[O-]	-2.9	1.0	4.6	.	i	0.7	-0.6
Cc1ccc(C(c2nnnn2CS(=O)(=O)c2ccc(C)cc2)N2CCC(C)CC2)cc1 (stereo unspecified)	?	3.6	2.2	-4%	.	0.71	.
COc1cnc(SCc2ccc(Cl)cc2)nc1Cl	-2.2	3.0	0.3	-2%	.	0.7	.
O=c1c2ccccc2[nH]c(=S)n1CCN1CCCCC1	3.3	3.2	-1.5	3%	i	0.72	-2.1

All compounds of this part, previewed entries included:
SMILES	RanGTP-Impb inh	UCH37 DUB inh	HNF4A DNA FP	Vif TR-FRET	FGF22 binding	Ecoli growth	MLL AF4-AF9 inh
C[N+](C)(C)C[C@H](O)CC(=O)[O-]	-2.9	1.0	4.6	.	i	0.7	-0.6
Cc1ccc(C(c2nnnn2CS(=O)(=O)c2ccc(C)cc2)N2CCC(C)CC2)cc1 (stereo unspecified)	?	3.6	2.2	-4%	.	0.71	.
COc1cnc(SCc2ccc(Cl)cc2)nc1Cl	-2.2	3.0	0.3	-2%	.	0.7	.
O=c1c2ccccc2[nH]c(=S)n1CCN1CCCCC1	3.3	3.2	-1.5	3%	i	0.72	-2.1
Cc1ccc(CNC(=O)CCCc2cn(C)c3ccccc23)cc1	0.6	2.6	-0.6	-8%	i	0.67	2.4
Cc1ccc(N)cc1O	.	-0.9	-1.4	.	i	0.68	.
CCOC(=O)N1CCC(NC(=O)C(CC(C)C)NC(=O)C2CCC(C)CC2)CC1 (stereo unspecified)	2.4	-1.9	0.6	28%	.	0.73	.
CCCC(=O)N1CCOCC1c1cc(C(=O)Nc2ccccc2)no1 (stereo unspecified)	.	.	3.0	.	i	.	-2.2
CN(C(=O)C(=O)c1cn(CC(=O)N2CCCC2)c2ccccc12)C1CCCCC1	4.7	3.6	-0.6	.	i	0.68	-1.3
CCCCN(C(=O)C1=CC=CN2CCS(=O)(=O)N=C12)c1ccccc1	.	1.4	-1.5	-4%	i	0.66	-0.3
CCC(=O)Nc1ccc(C(=O)COC(=O)c2sc(C)nc2C)cc1	.	-1.1	3.7	.	.	0.62	-2.4
CC(OC(=O)C(C)Oc1ccccc1)C(=O)Nc1ccc(S(=O)(=O)N2CCCCC2)cc1 (stereo unspecified)	.	0.0	1.1	-18%	i	0.61	-0.2
C=CCn1c(SCC(=O)NCCOC)nnc1-c1cc2c(s1)CCC(CC)C2 (stereo unspecified)	-0.1	-3.0	2.8	6%	i	0.67	-13
COc1ccc(-n2nnc3c(SCC(=O)OCc4ccccc4)ncnc32)cc1	-1.3	1.4	-1.0	1%	.	0.75	.
CCN(c1ccc(C)c(C)c1)S(=O)(=O)c1c(C)[nH]c(=O)[nH]c1=O	3.5	2.2	-1.3	0%	.	0.7	.
CCOC(=O)c1c(C)n(C)c2ccc(OCC(O)CN3CCN(C)CC3)cc12 (stereo unspecified)	-0.9	3.7	-1.0	4%	i	0.67	7.5
COc1ccc(S(=O)(=O)N2CCN(Cc3cc4c(cc3Br)OCCO4)CC2)cc1	.	1.3	0.5	.	i	0.69	-2.2
O=C(O)COc1ccc(/C=N/NC(=O)/C(=C/C=C/c2ccccc2)NC(=O)c2ccccc2)cc1	1.4	.	2.2	.	i	.	4.6
Cc1cccc(NC(=O)CSc2nnc(CNC(=O)c3ccco3)n2C)c1C	1.1	3.6	2.4	-5%	.	0.66	-1.0
FC(F)(F)c1nnc(N2CCN(c3ccc(Cl)cc3)CC2)s1	1.5	6.4	-3.5	15%	i	0.69	0.3
Cc1cc(C)nc(NS(=O)(=O)c2ccc(NC(=O)c3cc(=O)c4ccccc4o3)cc2)n1	2.5	5.7	1.6	-13%	i	0.7	-1.8
O=C(Cc1ccccc1)Nc1ccc(C(=O)NCC2COc3ccccc3O2)cc1 (stereo unspecified)	0.5	-1.4	5.1	.	.	0.65	.
Cc1cccc(-c2cccc(NC(=O)C3CCCN(Cc4cccnc4)C3)c2)c1 (stereo unspecified)	6.1	-0.2	1.4	.	i	0.69	4.5
Cc1n[nH]c(=O)c2c(NC(=O)COC(=O)c3ncc(Cl)c(Cl)c3Cl)oc(C)c12	-2.3	.	-1.5	.	i	.	-19
O=C(O)CN1C(=O)C(=O)N(Cc2ccc(Cl)c(Cl)c2)C1=O	0.1	0.8	5.1	-9%	i	0.69	-7.1
Cc1ccccc1OCCC(=O)Nc1cc(S(=O)(=O)N2CCCCC2)ccc1N1CCN(C)CC1	.	.	4.6	.	i	.	15
O=C(N=C1SCC(=O)N1c1ccccc1Cl)c1ccco1	1.2	2.7	3.8	4%	i	0.73	7.9
Cc1cc(C(F)F)n2nc(C(=O)NCc3ccccc3F)nc2n1	0.1	-0.4	2.4	7%	.	0.7	.
COc1ccccc1C=C1SC(=S)NC1=O	.	.	6.2	5%	i	.	4.2
COc1nc(-c2ccccc2)ccc1-c1noc(-c2ccccc2)n1	10	.	5.5	-96%	.	.	.
CC(=O)Nc1ccc(S(=O)(=O)NCC2CCC(C(=O)NCCCOC(C)C)CC2)cc1 (stereo unspecified)	-3.4	2.5	.	.	i	0.64	-1.0
Cc1ccc(C)c(Cn2nnc3c(=O)[nH]c(C4CCCN(C(=O)C5CCC5)C4)nc32)c1 (stereo unspecified)	-0.2	0.2	-3.3	2%	i	0.67	1.7
COc1ccc(S(=O)(=O)NC2CCCCCC2)c(OC)c1	0.0	2.1	-0.2	.	i	0.7	-2.5
O=C(c1ccccc1)N1CCN(C(=S)NCc2ccco2)CC1	-0.6	4.9	0.3	2%	i	0.73	1.2
Cc1[nH]c(=S)[nH]c(=O)c1CCCO	-0.6	.	-2.6	5%	i	.	-3.0
COCCN(C(=S)Nc1cccc(C)c1C)C(C)c1ccco1 (stereo unspecified)	-1.1	5.0	1.3	-2%	i	0.69	1.3
COc1ccccc1C(=O)Nn1cnc2ccccc2c1=O	-0.8	4.6	1.8	1%	i	0.72	-24
O=C(CN1C(=O)NC2(CCc3ccccc32)C1=O)NCC(=O)Nc1ccc(F)cc1 (stereo unspecified)	.	0.9	4.1	-3%	i	0.69	0.8
Cc1ccc(S(=O)(=O)N2CCOCC2)cc1C(=O)N1CCN(S(=O)(=O)c2cccs2)CC1	0.1	2.5	4.4	.	i	0.68	-7.4
COc1ccc(/C=N/Nc2nc(C)cc(=O)[nH]2)cc1OC	0.1	.	-0.2	.	i	.	-1.9
Fc1ccc(CN2CCN(C(c3ccccc3)c3ccccc3)CC2)cc1	4.6	3.2	0.9	.	i	0.67	4.6
O=C(OCC(=O)N1CCCCC1)c1ccc2c(c1)C(=O)N(Cc1ccco1)C2=O	.	1.6	-2.1	.	i	0.65	2.6
Cc1ccc(OCCNC(=O)[C@H]2O[C@@H](n3ccc(N)nc3=O)[C@H](O)[C@@H]2O)cc1C	.	.	0.2	.	i	.	-1.6
COc1ccc(N(C)S(=O)(=O)c2cccc(C(=O)OCC(=O)N(C)c3ccccc3)c2)cc1	.	5.5	-0.2	-2%	i	0.67	-1.5
N/C(=N\N=C/c1ccc(F)cc1)N/N=C\c1ccc(F)cc1	-3.9	.	-20	-1%	i	.	5.1
CCCC(=O)NC(Nc1cccc(C(F)(F)F)c1)C(Cl)(Cl)Cl (stereo unspecified)	1.7	4.2	-1.1	-3%	.	.	.
COc1cccc(C(=O)NN2CCOCC2)c1	4.6	1.8	2.6	.	i	0.63	-2.5
Cc1[nH]c(C)c(S(=O)(=O)N2CCCCC2C)c1C(=O)N1CCCC1 (stereo unspecified)	0.9	-0.4	-0.8	-9%	i	0.7	-2.2
COc1ccc(CCCNC(=O)C2(C)Cc3c(-c4ccc5c(c4)OCO5)ccnc3O2)cc1 (stereo unspecified)	.	.	-0.3	.	i	.	-2.4
CC1CCC(n2c(=S)[nH]c3ccccc3c2=O)CC1 (stereo unspecified)	5.9	-0.5	-0.6	-5%	.	0.73	.
CCOc1cc(S(=O)(=O)N2CCCCC2)ccc1F	1.9	4.8	1.3	?	i	0.73	6.8
COC(=O)c1ccc(NC(=O)c2cnc3scc(C)n3c2=O)cc1	1.7	-13	.	-8%	.	0.81	.
COC(=O)C(NC(C)=O)(Nc1cc(C)ccn1)C(F)(F)F (stereo unspecified)	5.9	-0.1	-3.9	4%	i	0.66	-0.2
Cc1ccc(C)c(NC(=O)CCC(=O)NNC(=O)c2cccc([N+](=O)[O-])c2)c1	-4.8	2.0	-1.1	30%	.	0.67	.
Cc1noc(C)c1COC(=O)CNC(=O)c1ccc(Cl)cc1	2.3	2.0	-0.6	-4%	i	0.71	-0.1
O=S1(=O)CCC(NC(=S)NC2CCS(=O)(=O)C2)C1 (stereo unspecified)	-1.2	5.1	4.5	?	i	0.64	-7.3
CC1=C(C)NC(=S)SC1	2.3	3.1	1.2	-2%	.	0.68	.
CCOC(=O)C1=C(C)N(CCCCCC(=O)O)C(=O)NC1c1ccc(Br)cc1 (stereo unspecified)	-0.9	1.2	1.0	.	i	0.74	-1.5
COCC(=O)Nc1ccccc1-c1ccccc1	-3.4	1.1	-0.1	.	i	0.69	-4.8
COc1cc(/C=N/NC(=O)c2ccc(O)cc2)ccc1OCC(=O)Nc1cccc([N+](=O)[O-])c1	-6.3	.	6.3	.	i	.	-23
The list continues:
SMILES	RanGTP-Impb inh	UCH37 DUB inh	HNF4A DNA FP	Vif TR-FRET	FGF22 binding	Ecoli growth	MLL AF4-AF9 inh
CCc1nc2sc(C(C)=O)c(N)c2c2c1CCCC2	28*	-160	-0.6	7%	i	0.61	-6.8
CC(CC(=O)Nc1ccccc1)NCCCN1CCCC1=O (stereo unspecified)	5.2	6.2	-0.6	.	i	0.7	-0.9
C(=NOCc1ccccc1)c1cccnc1	.	2.5	3.7	-2%	i	0.63	1.6
CCSc1ccccc1C(=O)Nc1ccc(S(=O)(=O)NC(C)=O)cc1	0.9	-0.1	-1.4	.	i	0.69	-11
CCC(OC(=O)c1ccco1)C(=O)NC1CCCC1 (stereo unspecified)	5.8	3.0	-2.7	.	i	0.67	-6.3
Fc1cccc(-c2n[nH]c(=S)n2-c2ccccc2)c1	-2.0	1.5	0.1	.	i	0.69	-2.2
CC(C)(C)NC(=O)COC(=O)c1ccc(F)cc1Cl	0.3	-0.8	2.7	6%	i	0.69	-1.8
COc1ccc(CCN2C(=O)N[C@@H](C(C)C)C2=O)cc1	0.2	5.0	1.3	-1%	i	0.68	-3.9
CC(Oc1ccc2c3c(c(=O)oc2c1)CCC3)C(=O)NCc1cccnc1 (stereo unspecified)	-1.4	-19	2.5	2%	i	0.61	-0.4
COCc1ccc(C(=O)NCC2(N3CCCCC3)CCCCC2)cc1	1.1	2.1	-3.5	-4%	i	0.71	0.8
CCOc1ccc(CCN2C(=S)N([C@@H](CC(C)C)CN3CCCC3CN3C(=S)NC[C@@H]3Cc3ccc(O)cc3)C[C@@H]2Cc2ccccc2)cc1 (stereo partly specified)	.	.	4.7	0%	i	.	-6.1
COc1ccc(NC(=S)NC2CC3CCC(C2)N3Cc2ccco2)cc1 (stereo unspecified)	-4.5	6.0	0.5	-1%	i	0.71	3.3
COc1ccc(CCN2CCCC(CN(C)Cc3cc(OC)ccc3OC)C2)cc1 (stereo unspecified)	4.8	3.7	1.2	.	i	0.67	12
COc1cc(NC(=O)C2CCN(c3cnccn3)CC2)cc(OC)c1OC	0.2	-4.2	2.8	-3%	i	0.68	2.0
COc1ccc(NC(=O)CNCc2ccc(Cl)cc2)cc1S(=O)(=O)N1CCOCC1	.	-1.9	-4.7	.	i	0.68	0.9
